Vaccinia stage: blocks a specific stage of Vaccinia orthopoxvirus infection, primary screen, cell-based, single point; Vaccinia-infected cells, mCherry/Venus stage reporter fluorescence; stronger effect = lower value; some inactives read as strong as hits; activity change (mCherry), % (concentration not given with the values); 0.01% of 89,000 active;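 active = mCherry past -33% and 40 or more points under the early reporter, replicates agreeing; inconclusive = past -33% without that gap or agreement; tested in A549 cells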;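 also: scaled between vehicle wells and reference inhibitor wells; 23 nL library stock went into each well; one replicate is shown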
Vaccinia stage Venus: recorded beside Vaccinia stage, whose call it bears; activity change (Venus), %; measured here: Venus reporter, other viral stage;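 negative = less Venus signal; first of two replicates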
* hit, by the source's call. These rows are one share of the data (hit frequency here may not be typical).

The opening two entries, ahead of the listing:
For C[C@@H]1CN([C@H](C)CO)C(=O)c2cc(NS(=O)(=O)c3ccc(F)cc3)ccc2O[C@H]1CN(C)C(=O)NC1CCCCC1 the results were Vaccinia stage 0 and Vaccinia stage Venus -5.
Screening O=C(C1CC1)N1C[C@H]2[C@@H](c3ccccc31)[C@@H](CO)N2C(=O)c1ccccc1 returned Vaccinia stage 18 and Vaccinia stage Venus 7.

The list itself, repeating the preview:
For C[C@@H]1CN([C@H](C)CO)C(=O)c2cc(NS(=O)(=O)c3ccc(F)cc3)ccc2O[C@H]1CN(C)C(=O)NC1CCCCC1 the results were Vaccinia stage 0 and Vaccinia stage Venus -5.
Screening O=C(C1CC1)N1C[C@H]2[C@@H](c3ccccc31)[C@@H](CO)N2C(=O)c1ccccc1 returned Vaccinia stage 18 and Vaccinia stage Venus 7.
For C[C@@H]1CN([C@H](C)CO)S(=O)(=O)c2ccc(C#C[C@@H](C)O)cc2O[C@H]1CN(C)Cc1cncnc1 the results were Vaccinia stage 18 and Vaccinia stage Venus 17.
Screening O=C(C[C@@H]1CC[C@@H](NC(=O)C2CC2)[C@@H](CO)O1)NCCCN1CCOCC1 returned Vaccinia stage 6 and Vaccinia stage Venus -2.
Screening COc1ccc(NC(=O)N(C)C[C@@H]2Oc3cc(C#CCC(C)C)ccc3S(=O)(=O)N([C@@H](C)CO)C[C@H]2C)cc1 returned Vaccinia stage inconclusive.
C[C@H]1CN([C@@H](C)CO)S(=O)(=O)c2ccc(-c3ccccc3F)cc2O[C@H]1CN(C)C was read as Vaccinia stage -10 and Vaccinia stage Venus -6.
Screening C[C@@H]1CN([C@@H](C)CO)C(=O)c2cccc(NC(=O)C3CC3)c2O[C@@H]1CN(C)CC1CCCCC1 returned Vaccinia stage 19 and Vaccinia stage Venus 16.
Screening Cc1ccc(S(=O)(=O)N[C@@H]2CC[C@H](CCNC(=O)C3CCCCC3)O[C@H]2CO)cc1 returned Vaccinia stage -1 and Vaccinia stage Venus -3.
Screening COc1ccc(NC(=O)N(C)C[C@@H]2OCCCC[C@H](C)Oc3ccc(NS(=O)(=O)c4cccs4)cc3C(=O)N([C@H](C)CO)C[C@@H]2C)cc1 returned Vaccinia stage -5 and Vaccinia stage Venus -10.
Screening Cc1noc(C)c1S(=O)(=O)Nc1ccc2c(c1)C(=O)N([C@@H](C)CO)C[C@@H](C)[C@H](CN(C)C(=O)Nc1ccc3c(c1)OCO3)OCCCC[C@@H](C)O2 returned Vaccinia stage 0 and Vaccinia stage Venus 6.
Screening CCCNC(=O)C[C@@H]1C[C@@H]2c3cc(NC(=O)NC4CCCCC4)ccc3O[C@@H]2[C@H](CO)O1 returned Vaccinia stage -4 and Vaccinia stage Venus -9.
`O=C(Cc1ccccn1)N[C@@H]1CC[C@@H](CCNC(=O)c2cc(Cl)cc(Cl)c2)O[C@H]1CO` gave Vaccinia stage 0 and Vaccinia stage Venus 8.
`C[C@@H]1CN([C@H](C)CO)C(=O)Cc2cc(NC(=O)C3CC3)ccc2O[C@@H]1CN(C)Cc1ccc(C(F)(F)F)cc1` gave Vaccinia stage inconclusive.
For COCC#Cc1cnc2c(c1)C(=O)N([C@@H](C)CO)C[C@@H](C)[C@@H](CN(C)C(=O)C1CCOCC1)O2 the results were Vaccinia stage 2 and Vaccinia stage Venus -1.
`COc1ccc2c3c(n(C)c2c1)[C@H](CO)N(Cc1ccncc1)CC31CCN(C(=O)Cc2ccncc2)CC1` gave Vaccinia stage 1 and Vaccinia stage Venus -8.
Screening C/C=C/c1ccc([C@H]2[C@@H](CO)N(C(=O)NCCC)[C@H]2CN(C)C(C)=O)cc1 returned Vaccinia stage 6 and Vaccinia stage Venus 4.
`C[C@@H]1CN([C@H](C)CO)C(=O)Cc2cc(NC(=O)CCCN(C)C)ccc2O[C@H]1CN(C)S(=O)(=O)c1ccc(F)cc1` gave Vaccinia stage 16 and Vaccinia stage Venus 4.
Screening C[C@@H]1CCCCO[C@H](CN(C)C(=O)Nc2ccc(F)cc2)[C@H](C)CN([C@@H](C)CO)C(=O)c2cc(NS(=O)(=O)c3cccs3)ccc2O1 returned Vaccinia stage -26 and Vaccinia stage Venus -18.
COCc1cn(CC[C@H]2CC[C@H](NC(=O)Nc3ccc(F)cc3)[C@H](CO)O2)nn1 was read as Vaccinia stage 10 and Vaccinia stage Venus 3.
`COc1cccc(C(=O)Nc2ccc3c(c2)C(=O)N(C)C[C@@H](OC)[C@@H](C)CN[C@H](C)CO3)c1` gave Vaccinia stage -9 and Vaccinia stage Venus -2.
For C[C@@H](NC(=O)C[C@H]1CC[C@@H](NC(=O)Nc2ccc3c(c2)OCO3)[C@H](CO)O1)c1ccccc1 the results were Vaccinia stage -1 and Vaccinia stage Venus 7.
`COCCN(C[C@@H]1[C@@H](c2ccccc2)[C@@H](CO)N1C(C)=O)C(=O)c1cccnc1` gave Vaccinia stage 14 and Vaccinia stage Venus 22.
Screening C[C@@H]1CN([C@H](C)CO)S(=O)(=O)c2ccc(C3=CCCCC3)cc2O[C@H]1CN(C)Cc1cccc(C(=O)O)c1 returned Vaccinia stage -23 and Vaccinia stage Venus -15.
`C[C@H](CO)N1C[C@H](C)[C@@H](CN(C)Cc2ccccc2C(=O)O)Oc2ncc(C#CC3CC3)cc2C1=O` gave Vaccinia stage 17 and Vaccinia stage Venus 9.
C[C@@H]1CN([C@@H](C)CO)C(=O)c2cc(C#Cc3ccccc3)cnc2O[C@@H]1CN(C)C(=O)C1CC1 was read as Vaccinia stage -9 and Vaccinia stage Venus -6.
C[C@@H]1CN([C@H](C)CO)C(=O)c2cc(NS(=O)(=O)c3ccccc3)ccc2O[C@@H](C)CCCCO[C@@H]1CN(C)S(C)(=O)=O was read as Vaccinia stage 15 and Vaccinia stage Venus 3.
Screening COc1ccc(NC(=O)N(C)C[C@@H]2Oc3ncc(C#Cc4ccccc4)cc3C(=O)N([C@H](C)CO)C[C@@H]2C)cc1 returned Vaccinia stage inconclusive.
Screening C[C@H](CO)N1C[C@H](C)[C@H](CN(C)C(=O)c2ccccn2)Oc2ncc(Br)cc2C1=O returned Vaccinia stage 4 and Vaccinia stage Venus -1.
C[C@@H]1CN([C@@H](C)CO)C(=O)c2cc(NC(=O)Cc3ccccc3)ccc2O[C@@H]1CN(C)S(=O)(=O)c1ccccc1 was read as Vaccinia stage -11 and Vaccinia stage Venus 8.
`CO[C@H]1CN(C)C(=O)c2cc(NC(C)=O)ccc2OC[C@@H](C)N(Cc2ccccc2F)C[C@H]1C` gave Vaccinia stage 3 and Vaccinia stage Venus 1.
For O=C(NCC1CC1)[C@H]1[C@H](CO)[C@H]2Cn3c(ccc(C4=CCCC4)c3=O)[C@H]2N1C(=O)C1CC1 the results were Vaccinia stage 14 and Vaccinia stage Venus 23.
For O=C(N[C@H]1CC[C@H](CCNS(=O)(=O)c2cccc(Cl)c2)O[C@@H]1CO)c1ccc(F)cc1 the results were Vaccinia stage -1 and Vaccinia stage Venus 2.
Screening N#C[C@@H]1[C@@H](c2ccc(C3=CCCCC3)cc2)[C@@H](CO)N1C(=O)Cc1ccncc1 returned Vaccinia stage -2 and Vaccinia stage Venus -3.
Screening COc1ccccc1-c1cnc2c(c1)C(=O)N([C@@H](C)CO)C[C@@H](C)[C@H](CN(C)Cc1cccc(F)c1)O2 returned Vaccinia stage inconclusive.
For Cc1ccc(S(=O)(=O)NCC[C@H]2CC[C@H](NC(=O)c3cccnc3)[C@@H](CO)O2)cc1 the results were Vaccinia stage -2 and Vaccinia stage Venus 4.
For C[C@H](CO)N1C[C@H](C)[C@H](CN(C)CC2CC2)Oc2ccc(NC(=O)Cn3cnnn3)cc2C1=O the results were Vaccinia stage -1 and Vaccinia stage Venus -3.
`O=C(C[C@@H]1CC[C@H](NC(=O)c2ccc(F)cc2)[C@H](CO)O1)NCc1ccncn1` gave Vaccinia stage 13 and Vaccinia stage Venus 18.
Screening C[C@@H]1CN([C@@H](C)CO)C(=O)c2cc(NS(=O)(=O)c3cn(C)cn3)ccc2O[C@@H](C)CCCCO[C@@H]1CN(C)S(=O)(=O)c1ccc(F)cc1 returned Vaccinia stage 6 and Vaccinia stage Venus 9.
Screening O=C(c1ccccn1)N1CC(=O)N2[C@H](C1)[C@@H](c1ccc(C#CC3CCCC3)cc1)[C@@H]2CO returned Vaccinia stage -14 and Vaccinia stage Venus -33.
COc1ccc2c3c([nH]c2c1)[C@@H](CO)N(C(=O)C1CC1)CC31CN(C(=O)NC(C)C)C1 was read as Vaccinia stage 1 and Vaccinia stage Venus 0.
Screening COc1ccc(S(=O)(=O)Nc2ccc3c(c2)[C@H]2C[C@@H](CC(=O)O)O[C@H](CO)[C@H]2O3)cc1 returned Vaccinia stage 8 and Vaccinia stage Venus 13.
Screening O=C(C1CCCC1)N1CCCCN2[C@H](CO)[C@H](c3ccc(C4=CCCC4)cc3)[C@@H]2C1 returned Vaccinia stage 16 and Vaccinia stage Venus -7.
`CCCC(=O)Nc1ccc2c(c1)C(=O)N(C)C[C@@H](OC)[C@@H](C)CN(CCC)[C@@H](C)CO2` gave Vaccinia stage -10 and Vaccinia stage Venus -5.
Screening O=C([C@H]1[C@H](CO)[C@H]2Cn3c(ccc(-c4ccncc4)c3=O)[C@H]2N1CCC(F)(F)F)N1CCCCC1 returned Vaccinia stage -20 and Vaccinia stage Venus -2.
C[C@@H]1CN([C@H](C)CO)S(=O)(=O)c2ccc(C#CC3CC3)cc2O[C@@H]1CN(C)S(C)(=O)=O was read as Vaccinia stage 2 and Vaccinia stage Venus -2.
For CO[C@H]1CN(C)C(=O)c2ccc(NS(=O)(=O)c3ccccc3)cc2OC[C@H](C)NC[C@H]1C the results were Vaccinia stage 10 and Vaccinia stage Venus 7.
`C[C@@H]1CN([C@@H](C)CO)C(=O)CCCn2cc(nn2)CO[C@H]1CN(C)S(=O)(=O)c1ccc(-c2ccccc2)cc1` gave Vaccinia stage -8 and Vaccinia stage Venus -9.
Screening COc1ccc(S(=O)(=O)Nc2ccc3c(c2)CC(=O)N([C@H](C)CO)C[C@@H](C)[C@@H](CN(C)S(=O)(=O)c2c(C)noc2C)O3)cc1 returned Vaccinia stage 19 and Vaccinia stage Venus 13.
C[C@@H]1CN([C@H](C)CO)C(=O)Cc2cc(NS(=O)(=O)c3cn(C)cn3)ccc2O[C@@H]1CN(C)S(=O)(=O)c1ccccc1 was read as Vaccinia stage 7 and Vaccinia stage Venus 6.
For C[C@H](CO)N1C[C@H](C)[C@H](CN(C)S(=O)(=O)c2cccs2)Oc2ccc(NS(=O)(=O)c3ccc(Cl)cc3)cc2C1=O the results were Vaccinia stage inconclusive.

Some of these compounds in order of SMILES length, lowest first:
Screening O=C(C1CCCC1)N1CCCCN2[C@H](CO)[C@H](c3ccc(C4=CCCC4)cc3)[C@@H]2C1 returned Vaccinia stage 16 and Vaccinia stage Venus -7.
For CO[C@H]1CN(C)C(=O)c2ccc(NS(=O)(=O)c3ccccc3)cc2OC[C@H](C)NC[C@H]1C the results were Vaccinia stage 10 and Vaccinia stage Venus 7.
C[C@@H]1CN([C@H](C)CO)S(=O)(=O)c2ccc(C#CC3CC3)cc2O[C@@H]1CN(C)S(C)(=O)=O was read as Vaccinia stage 2 and Vaccinia stage Venus -2.
Screening O=C([C@H]1[C@H](CO)[C@H]2Cn3c(ccc(-c4ccncc4)c3=O)[C@H]2N1CCC(F)(F)F)N1CCCCC1 returned Vaccinia stage -20 and Vaccinia stage Venus -2.
For C[C@H](CO)N1C[C@H](C)[C@H](CN(C)S(=O)(=O)c2cccs2)Oc2ccc(NS(=O)(=O)c3ccc(Cl)cc3)cc2C1=O the results were Vaccinia stage inconclusive.
C[C@@H]1CN([C@H](C)CO)C(=O)Cc2cc(NS(=O)(=O)c3cn(C)cn3)ccc2O[C@@H]1CN(C)S(=O)(=O)c1ccccc1 was read as Vaccinia stage 7 and Vaccinia stage Venus 6.

(more compounds)
COc1ccc(CN(C)C[C@H]2OCCCC[C@@H](C)Oc3ccc(NC(=O)Nc4ccc(F)cc4)cc3C(=O)N([C@H](C)CO)C[C@H]2C)cc1 was read as Vaccinia stage inconclusive.
`CC(C)C#Cc1ccc2c(c1)O[C@H](CN(C)C(=O)c1cccnc1)[C@H](C)CN([C@H](C)CO)S2(=O)=O` gave Vaccinia stage 17 and Vaccinia stage Venus 7.
`CC(C)NC(=O)Nc1cccc2c1O[C@@H](CN(C)C(=O)Nc1ccc(F)cc1)[C@@H](C)CN([C@@H](C)CO)C2=O` gave Vaccinia stage -21 and Vaccinia stage Venus -16.
`C[C@H]1CCCCO[C@H](CN(C)C(=O)CCC(F)(F)F)[C@@H](C)CN([C@@H](C)CO)C(=O)c2cc(NS(=O)(=O)c3cn(C)cn3)ccc2O1` gave Vaccinia stage 12 and Vaccinia stage Venus 11.
Screening COc1ccc(NC(=O)N(C)C[C@H]2Oc3ccc(NC(=O)CCC(F)(F)F)cc3C(=O)N([C@H](C)CO)C[C@@H]2C)cc1 returned Vaccinia stage 12 and Vaccinia stage Venus 18.
For CO[C@@H]1CN(C)C(=O)c2cc(NC(=O)CC(F)(F)F)ccc2OC[C@H](C)N(S(=O)(=O)c2cn(C)cn2)C[C@@H]1C the results were Vaccinia stage 15 and Vaccinia stage Venus 21.
For C[C@H](CO)N1C[C@H](C)[C@@H](CN(C)C(=O)c2cc(Cl)cc(Cl)c2)OCc2ccccc2-c2c(n(C)c3ccccc23)C1=O the results were Vaccinia stage inconclusive.
For CCC(=O)Nc1ccc2c(c1)OC[C@@H](C)N(C(C)=O)C[C@@H](C)[C@@H](OC)CN(C)C2=O the results were Vaccinia stage 22 and Vaccinia stage Venus 12.
For N#C[C@H]1[C@H](c2ccccc2-c2ccccc2)[C@H](CO)N1C(=O)NC1CCCC1 the results were Vaccinia stage -18 and Vaccinia stage Venus -17.
For COc1ccccc1C(=O)Nc1ccc2c(c1)C(=O)N(C)C[C@H](OC)[C@@H](C)CN(CC1CC1)[C@H](C)CO2 the results were Vaccinia stage -14 and Vaccinia stage Venus -9.
`COCc1cn(CC[C@@H]2CC[C@@H](NC(=O)Nc3ccc(OC)cc3)[C@H](CO)O2)nn1` gave Vaccinia stage 2 and Vaccinia stage Venus -2.
For C[C@@H]1CN([C@H](C)CO)C(=O)c2cc(NS(=O)(=O)c3cn(C)cn3)ccc2O[C@@H]1CN(C)S(=O)(=O)c1cccs1 the results were Vaccinia stage 18 and Vaccinia stage Venus 5.

Screening data from PubChem.
